VCAM-1 rise: enhancers of VCAM-1 display on endothelial cells, cell-based, plate reader, pooled HUVEC, TNFa stimulus (AID 455) | HUVEC TNFa-induced VCAM-1 immunofluorescence, plate reader; numbers were filed only for top-ranked candidate wells | 10,000 compounds, 0.2% hits | augmentation, % at 5 µM;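 active = a compound raising TNF-alpha-driven VCAM-1 surface staining, with its hit status upheld on visual or statistical review; inactive = the rest, including hits rejected on review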;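 also: 0% = TNFa with vehicle and 100% = strongest image-checked hit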
Proteasome disasm: blocks ATP-dependent breakdown of the yeast 26S proteasome; anti-FLAG beads, GFP-proteasome disassembly, flow cytometry; inhibition of disassembly, % (concentration not given with the values); 24,000 compounds, 0.2% hits;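 active = above 40%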;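 also: plate controls were ATP control with full disassembly for no effect and ATP-gamma-S intact proteasomes for full effect; higher percent means more bead fluorescence retained so stronger block of disassembly; stock transfer was 100 nL into about 10 µL; wells with too few beads may also be inconclusive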
Starred values were filed as active, the others as inactive; i = inactive; / = no result given; & = joins results of further samples.

The line under a structure holds: VCAM-1 rise, Proteasome disasm
Cc1cccc(Nc2nc(N)nc(CN3CCC(C(N)=O)CC3)n2)c1C
 : i, -3.3
CSc1nnc2c(n1)OC(C)N(C(=O)c1ccccc1)c1ccccc1-2 (stereo not given)
 : /, -0.2
Cc1cc2c(N3CCCCC3C)ncnc2s1 (stereo not given)
 : /, -1.1
COC(=O)C1(C)Nc2ccccc2C(=O)N1c1ccccc1C (stereo not given)
 : /, 1.0
Cc1ccc(N=Cc2ccc(O)cc2O)cc1F
 : i, -0.2
COCCCNC(=O)CSC1=Nc2ccccc2C2=NC(Cc3c[nH]c4ccccc34)C(=O)N12 (stereo not given)
 : /, 3.1
CCOc1ccccc1NC(=O)NC1CCN(CC(=O)Nc2ccc3c(c2)OCCO3)CC1
 : i, -2.8
COc1ccccc1CC(=O)Nc1ccc(OC)c(OC)c1
 : i, -0.2
COc1ccc(OC)c(NC2c3ccccc3C(=O)N2Cc2ccc3c(c2)OCO3)c1 (stereo not given)
 : /, 0.6
COC(=O)C1C(=O)c2c([nH]c(C(=O)OC3CCCC3C)c2C)CC1C (stereo not given)
 : /, 0.0
CN1CCN(CCCNC(=O)c2cc3c(-c4ccc(Cl)cc4)nn(C)c3s2)CC1
 : /, -0.8
O=C(COc1ccc(Cl)cc1)NCc1nnc(SCC(=O)N2CCCCC2)o1
 : /, -1.1
COc1ccc(-c2noc(COc3ccc(C)c(C)c3)n2)cc1OC
 : i, 3.5
COc1cccc(C2CC(c3cccs3)Nc3ncnn32)c1 (stereo not given)
 : /, 0.0
NC(=O)CN1C(=O)C2C3C=CC(C3)C2C1=O (stereo not given)
 : /, -2.5
Cc1c(=O)n(OCc2ccccn2)c2ccccc2[n+]1[O-]
 : i, 0.8
COc1ccc2cc(C(=O)OC(C)C)sc(=O)c2c1OC
 : /, -0.6
COc1ccc(C2(C(=O)N3CCCC3)CCOCC2)cc1OC
 : i, -0.4
NC(=O)c1ccccc1NC(=O)CN1CCOCC1
 : i, -1.9
Cc1cc(C)nc(NC(=O)c2cnc3sccn3c2=O)n1
 : i, 0.4

An excerpt of these results, as labelled records.
> Cc1ccc(N=Cc2ccc(O)cc2O)cc1F
  VCAM-1 rise: i	Proteasome disasm: -0.2
> CCOc1ccccc1NC(=O)NC1CCN(CC(=O)Nc2ccc3c(c2)OCCO3)CC1
  VCAM-1 rise: i	Proteasome disasm: -2.8
> COc1ccc(-c2noc(COc3ccc(C)c(C)c3)n2)cc1OC
  VCAM-1 rise: i	Proteasome disasm: 3.5
> COCCCNC(=O)CSC1=Nc2ccccc2C2=NC(Cc3c[nH]c4ccccc34)C(=O)N12 (stereo not given)
  VCAM-1 rise: /	Proteasome disasm: 3.1

(cont.)
The line under a structure holds: VCAM-1 rise, Proteasome disasm
CCC(C)N(CCNC(=O)CC1Oc2ccccc2NC1=O)C1CCCCC1 (stereo not given)
 : /, 1.4
Cc1ccc(F)cc1NC(=O)c1cccc2nccnc12
 : i, -0.1
CCOc1ccc(-n2nc(C(=O)NCCOC)c3ccccc3c2=O)cc1
 : /, -0.5
COc1ccc(-c2cc3n(n2)CCc2nc4ccccc4n2-3)cc1
 : i, 0.7
C=CCOc1nc(N(C)C)nc(N(C)C)n1
 : i, -0.6
NC(CC(=O)O)c1cccc(OCc2ccccc2)c1 (stereo not given)
 : /, 3.0
O=C(C1CCCN(Cc2ccncc2)C1)N1CCc2ccccc2C1 (stereo not given)
 : /, -0.6
O=C(O)CCCCCNC(=O)c1ccncc1
 : /, 3.8
O=C(CN(Cc1ccccc1F)S(=O)(=O)c1ccc(Cl)cc1)NCCCO
 : /, 0.4
CCc1cccc(NC(=O)CCS(=O)(=O)c2cccc3nonc23)c1
 : /, 0.4
CC1(C)Cc2c(c(=S)nc(-c3ccccc3)n2CCO)CO1
 : i, 0.4
COC(=O)CSc1nnc(CNC(=O)Cc2ccccc2)n1-c1ccccc1OC
 : /, -1.7
CCOc1ccccc1C1CC(=O)NC2=C1C(=O)CCC2 (stereo not given)
 : /, 0.1
CCOc1cc2[nH]c(=S)n(CCCN3CCOCC3)c(=O)c2cc1OCC
 : /, 1.9
COc1cc(C(O)c2nc3ccccc3n2C)cc(OC)c1OC (stereo not given)
 : i, 1.9
Cc1c(C(=O)NCc2ccccc2)oc2ccc(S(=O)(=O)N3CCC4(CC3)OCCO4)cc12
 : /, 2.7
Cc1cc(C)cc(-n2c(=O)c3sccc3n(CC(=O)NCc3ccco3)c2=O)c1
 : /, 0.7
O=C(O)c1ccc2c(c1)N(Cc1cccc(F)c1)C(=O)CS2
 : /, 2.9
OC(CNCC1COc2ccccc2O1)COCc1cccs1 (stereo not given)
 : i, 1.7
Cc1ccc(N2C(=O)c3ccccc3C2Nc2cccnc2)nc1 (stereo not given)
 : i, 0.5

An excerpt from above in order of heavy-atom count, highest first.
The line under a structure holds: VCAM-1 rise, Proteasome disasm
Cc1c(C(=O)NCc2ccccc2)oc2ccc(S(=O)(=O)N3CCC4(CC3)OCCO4)cc12
 : /, 2.7
COC(=O)CSc1nnc(CNC(=O)Cc2ccccc2)n1-c1ccccc1OC
 : /, -1.7
O=C(CN(Cc1ccccc1F)S(=O)(=O)c1ccc(Cl)cc1)NCCCO
 : /, 0.4
O=C(C1CCCN(Cc2ccncc2)C1)N1CCc2ccccc2C1 (stereo not given)
 : /, -0.6
Cc1ccc(N2C(=O)c3ccccc3C2Nc2cccnc2)nc1 (stereo not given)
 : i, 0.5
NC(CC(=O)O)c1cccc(OCc2ccccc2)c1 (stereo not given)
 : /, 3.0
C=CCOc1nc(N(C)C)nc(N(C)C)n1
 : i, -0.6

Next section.
The line under a structure holds: VCAM-1 rise, Proteasome disasm
Cc1ccc(O)c(-c2cc(C(=O)Nc3ccc(S(=O)(=O)N4CC(C)OC(C)C4)cc3)[nH]n2)c1 (stereo not given)
 : i, 5.9
O=C(C1CCN(S(=O)(=O)N2CCC3(CC2)OCCO3)CC1)N1CCOCC1
 : i, 0.1
CN1CCN(Cc2cc(COCc3ccccc3)c3cccnc3c2O)CC1
 : /, -5.9
Cc1ccc(NC(=O)CSc2nnc(Cn3c(=O)sc4ccccc43)n2C)cc1
 : /, -4.5
Cc1ccc(C)c(NC(=O)C2CC(O)CN2C(=O)OC(C)(C)C)c1 (stereo not given)
 : /, -0.5
O=C(CCS(=O)(=O)c1ccc(Br)s1)N1CCc2ccccc21
 : /, 0.0
CCOC(=O)c1ccc(CS(=O)c2ccc(Cl)cc2)o1 (stereo not given)
 : /, -1.4
O=C(c1cc2ccccc2c(=O)o1)N1CCCc2ccccc21
 : /, -0.2
CCCC(=O)C1=C(N(C)c2ccccc2)CC(C)(C)C(C(=O)OC)C1=O (stereo not given)
 : i, 0.6
CC(=O)N1CCc2cc(S(=O)(=O)NC(CC(C)C)C(=O)Nc3cc(C)ccn3)ccc21 (stereo not given)
 : /, -1.7
Cc1ccc(-c2nnn(CC(=O)N(CC3CCCO3)C(C(=O)NC(C)(C)C)c3ccc(F)cc3)n2)o1 (stereo not given)
 : i, 0.1
O=C(O)CCC(=O)CCC(=O)c1ccccc1
 : /, -1.1
COc1ccc2[nH]c(=O)c(CN(Cc3cccs3)S(=O)(=O)c3cccc4nsnc34)cc2c1
 : i, 3.4
CC(=O)OCC(=O)[C@@]1(O)CC[C@H]2[C@@H]3CCC4=CC(=O)C=C[C@]4(C)[C@@]3(Cl)[C@@H](Cl)C[C@@]21C
 : i, -0.3
O=C(NCCCN1CCOCC1)c1ccc(CS(=O)(=O)c2cccc(C(F)(F)F)c2)o1
 : /, -0.1
Cc1c(C(=O)NCc2ccccc2Cl)oc2c1C(=O)CCC2
 : /, 1.1
CCOc1ccccc1C(=O)Nc1nnc(CC)s1
 : i, 0.0
Cc1ccc(N2CCN(C(=O)c3ccccc3Br)CC2)c(C)c1
 : i, -0.8
CS(=O)(=O)Nc1cccc(C(=O)CC2(O)C(=O)Nc3ccc(Br)cc32)c1 (stereo not given)
 : /, -0.9
Cc1cc2ccccc2c(=O)n1CC(=O)NCC1COc2ccccc2O1 (stereo not given)
 : /, 0.9
O=C(Nc1nnc(/N=C/c2ccco2)s1)c1ccc(F)cc1
 : /, 0.0
Cc1ccc2nc3c(cc(C(=O)NCC4CCCO4)n3C)c(=O)n2c1 (stereo not given)
 : i, -1.9
O=C(Cn1nc(-c2ccc(Cl)cc2)ccc1=O)NCCN1CCOCC1
 : /, -2.6
CSc1ccc(C(C(C(=O)c2cccs2)N2CCOCC2)N2CCOCC2)cc1 (stereo not given)
 : /, -2.8
O=C(NCc1ccco1)C1CC(=O)N(CCc2ccccc2)C1 (stereo not given)
 : /, 0.1
O=C(NC1CCCc2ccccc21)C1CCCN(S(=O)(=O)c2cnc[nH]2)C1 (stereo not given)
 : /, 3.4
CC1=C(C(=O)N2CCc3ccccc32)C2(CCC(C)CC2)OC1=O (stereo not given)
 : /, 2.9
Cc1ccc2c(Cl)cc(Cl)c(OCc3c(C)noc3C)c2n1
 : i, -0.2
O=C(CCCn1c(=O)[nH]c2cc(Cl)ccc2c1=O)NCCN1CCN(c2ccccc2)CC1
 : /, -1.1
CCc1nnc(NC(=O)NCN2C(=O)C3C4C=CC(C4)C3C2=O)s1 (stereo not given)
 : i, -0.3
CCN(CC)CC(=O)Nc1c(C)cccc1C
 : i, 0.9&-1.7
CCCc1cc(C(=O)Nc2cccc(Cl)c2)no1
 : /, -0.9
COc1ccccc1-c1cc(C(=O)Nc2c(C)n(C)n(-c3ccccc3)c2=O)no1
 : /, 0.6
COc1ccc(NC(=O)CSc2nnc(Cc3cccn3C)n2CCc2ccccc2)cc1OC
 : /, -0.6
COc1ccc(N(C)S(=O)(=O)c2ccc3c(c2)oc(=O)n3C)cc1
 : /, 5.6
COC(=O)c1sc(S(=O)(=O)N2CCCCC2)c(C(=O)OC)c1C
 : /, 0.8
O=C(NCCCN1CCOCC1)c1ccc(CS(=O)(=O)c2ccc(Br)cc2)o1
 : /, -1.1
NC(=O)NCC12CC3CC(CC(C3)C1)C2
 : /, 0.6
Oc1c(Cl)cc(Cl)cc1Sc1cc(Cl)cc(Cl)c1O
 : i, -0.4
C1CNCCNCCNCCN1
 : i, -0.4
CC[C@H]1CN2CCc3cc(OC)c(OC)cc3[C@@H]2C[C@@H]1C[C@H]1NCCc2cc(OC)c(OC)cc21
 : i, 1.3
COc1ccccc1N1CCN(CC(O)COc2c(OC)cccc2OC)CC1 (stereo not given)
 : /, 1.3
O=C(Nc1ccc(N2CCOCC2)c(Cl)c1)c1ccc(Br)o1
 : i, -0.3
COc1ccc(-n2c(N)c(C(=O)NCc3ccco3)c3nc4ccccc4nc32)c(OC)c1
 : i, -1.9
CC1(C)O[C@@H]2C[C@H]3[C@@H]4C[C@H](F)C5=CC(=O)CC[C@]5(C)[C@H]4[C@@H](O)C[C@]3(C)[C@]2(C(=O)CO)O1
 : i, -0.7
CCOC(=O)c1nnn(-c2nonc2N)c1CN(C)Cc1ccccc1
 : /, 1.6
COCCNC(=O)C1CCCN(c2ncccn2)C1 (stereo not given)
 : i, -0.1
O=C(c1ccco1)N1CCN=C1SCc1cccc(Cl)c1
 : /, 0.2
O=C(c1cc(-c2cccs2)on1)N1CCc2ccccc2C1
 : i, 1.7
CCOc1ccc(S(=O)(=O)NCc2csc(C)n2)cc1
 : /, 0.8
COCc1cc(C)nc(N2CCOCC2)c1C#N
 : /, 0.1
Cc1ccc(NC(=O)C2CCCN(S(=O)(=O)c3cccs3)C2)cc1 (stereo not given)
 : /, -0.9
CCCCN(CC)S(=O)(=O)c1ccc(C(=O)Nc2nnc(-c3cccs3)o2)cc1
 : /, 1.1
CCCC(=O)N=C1SC2CS(=O)(=O)CC2N1c1ccc(CC)cc1 (stereo not given)
 : i, 1.5

This is a subset; the hit share may differ from the screen's.
